RanGTP-Imp inh = disruptors of Ran-importin-beta complex formation – biochemical, FRET, CFP-Ran, YFP-importin-beta, homogeneous, primary screen; cell-free CFP-Ran/YFP-importin-beta FRET ratio; inhibition, % (concentration not given with the values); 300,000 tested, 1.1% active; AID 2216;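 active means most replicates above 15%; inconclusive means exactly half above 15%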;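 further: 0% = DMSO wells and 100% = Ran loaded with GDP instead of GTP; wells of about 40 µL received 100 nL stock; the first replicate is given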
Vif A3G = HIV-1 Vif–A3G interaction blockers – biochemical, TR-FRET, GST-Vif 1-94, biotin-A3G peptide, dose response retest, primary screen (AID 1117319); 260,000 tested, 0.57% active; inhibition, %, or IC50 in µM where a hit was titrated; TR-FRET GST-Vif / biotin-A3G peptide binding; higher % means a stronger effect; test concentration not given here; strong numbers were not always called active;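 active means above the screen mean plus three standard deviations and confirmed in dose response; inconclusive means results disagree or hit not tested in dose response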;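 further: Vif residues 1-94 fused to GST binding biotinylated APOBEC3G peptide 110-148; 0% = full assay without inhibitor and 100% = GST in place of GST-Vif; retest series ran down from 100 µM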
HNF4A DNA FP = change in binding of human HNF4 alpha to DNA; P41235; HNF4a-FITC DNA binding, fluorescence polarization, 1 h; activity change, % at 10 µM; 360,000 tested, 0.3% active; in the data active means activity change above about 30%, passing the limit was not always enough;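 further: controls were the assay level and a saturating level of protein; the project sought stronger binding though the title names inhibitors; some compounds called inactive have numbers as strong as hits; positive values seem to mean higher polarization but the record does not say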
Target sequence (P41235 whole entry, looked up): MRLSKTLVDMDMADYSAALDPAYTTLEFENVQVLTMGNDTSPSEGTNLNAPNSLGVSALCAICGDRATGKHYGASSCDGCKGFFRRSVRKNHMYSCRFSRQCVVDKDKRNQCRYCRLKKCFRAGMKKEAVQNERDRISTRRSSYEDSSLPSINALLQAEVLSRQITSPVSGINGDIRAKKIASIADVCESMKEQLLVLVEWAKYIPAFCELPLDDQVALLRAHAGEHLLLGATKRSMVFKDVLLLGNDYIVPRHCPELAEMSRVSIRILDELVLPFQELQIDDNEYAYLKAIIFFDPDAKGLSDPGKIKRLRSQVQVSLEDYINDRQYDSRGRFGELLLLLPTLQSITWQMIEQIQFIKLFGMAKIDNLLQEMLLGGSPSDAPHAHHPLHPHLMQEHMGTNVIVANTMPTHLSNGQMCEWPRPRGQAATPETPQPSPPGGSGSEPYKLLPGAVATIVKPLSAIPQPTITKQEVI
FGF22 binding = FGF22 (human) thermal shift binding; Q9HCT0; recombinant FGF22 thermal shift, SYPRO orange fluorescence; percent of sucrose octasulfate shift, DMSO zero; calls only at 9.99 µM; 340,000 tested, 1.5% active; AID 651658;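 active means melting point raised past a set limit in the mean and every replicate; inconclusive means no clear call; three in four hits are not shown here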
Target sequence (Q9HCT0 whole entry, looked up): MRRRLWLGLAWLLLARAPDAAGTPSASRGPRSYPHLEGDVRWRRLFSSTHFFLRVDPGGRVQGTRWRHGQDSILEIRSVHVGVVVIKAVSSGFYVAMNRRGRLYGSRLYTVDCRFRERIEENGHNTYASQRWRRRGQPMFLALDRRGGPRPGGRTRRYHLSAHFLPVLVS
UCH37 DUB inh = blocks the human deubiquitinase UCH37. Q9Y5K5. purified proteasome/UCH37, Ub-AMC cleavage fluorescence. inhibition, % (test concentration not listed). 330,000 tested, 0.33% active;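 active means mean of two replicates above 20%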;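 further: 0% = compound-free wells with enzyme and 100% = wells lacking proteasome; stock transfer was 100 nL into about 20 µL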
Target sequence (Q9Y5K5 whole entry, looked up): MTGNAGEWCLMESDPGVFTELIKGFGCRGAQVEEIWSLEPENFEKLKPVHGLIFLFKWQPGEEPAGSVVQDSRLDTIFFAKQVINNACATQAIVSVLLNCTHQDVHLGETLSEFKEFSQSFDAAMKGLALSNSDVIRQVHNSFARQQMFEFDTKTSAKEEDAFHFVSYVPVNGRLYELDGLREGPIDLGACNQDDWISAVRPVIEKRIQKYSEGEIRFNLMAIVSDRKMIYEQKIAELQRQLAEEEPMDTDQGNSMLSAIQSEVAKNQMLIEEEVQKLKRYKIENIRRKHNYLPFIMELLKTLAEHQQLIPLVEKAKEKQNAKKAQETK
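System: Proteasome-associated human UCH37 deubiquitinase; Input: 0.15 nM proteasome in added enzyme buffer; Also added: Ub-AMC substrate from 1 µM stock; Incubation: 30 min compound-proteasome preincubation then 25 min substrate reaction, room temperature; Detection: fluorescence, ex 355 nm, em 460 nm; Read-out: % inhibition of Ub-AMC cleavage fluorescence; Benchmarks: no-proteasome and no-compound wells.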
MLL AF4-AF9 inh = blocks AF4 peptide binding to human AF9. P42568. AlphaScreen, biotin-AF4 peptide binding to FLAG-AF9. inhibition, % at 10 µM. 350,000 tested, 0.47% active;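 active means every replicate reaching a set inhibition limit, whatever the replicate mean, cut at about 25% in these data; inconclusive means mean inhibition reaches that limit but some replicates miss it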;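 further: 0% = plate neutral control median and 100% = total signal loss; the record names both 10 and 1 µM as test concentration; the first replicate is given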
Ecoli growth = blocks Escherichia coli growth; OD600 absorbance (concentration not given with the values); 330,000 tested, 0.21% active; AID 1053175; OD600, 23 h; stronger effect = lower value;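 active means OD600 absorbance below the run mean of sample wells minus 3.6 SD, in any replicate, cut at about 0.56 in these data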;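 further: stock transfer was 300 nL into about 60 µL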
* hit, by the source's call; i = inactive; ? = inconclusive; . = not tested or not shown; & = joins results of further samples. Not all compounds are listed; count on the stated rates, not on these rows.

SMILES | RanGTP-Imp inh | Vif A3G | HNF4A DNA FP | FGF22 binding | UCH37 DUB inh | MLL AF4-AF9 inh | Ecoli growth
COC(=O)c1ccc(CNC(=O)c2ccc3c(c2)NC(=O)CS3)cc1 | . | -12% | 5.3 | i | 0.8 | -1.7 | 0.71
COc1ccc(OC)c(NC(=O)CSc2nnc(CNc3ccc(F)cc3)o2)c1 | 2.3 | -12% | -2.4 | . | 1.1 | . | 0.7
O=C(NCCN1CCOCC1)c1cccc(Cl)c1 | 3.6 | 15% | -0.4 | . | 5.0 | . | 0.74
OCC1(CO)COC(/C=C/c2ccccc2)=N1 | -1.5 | . | -0.6 | i | 2.2 | 2.7 | 0.65
O=C(Nc1ccccc1N1CCN(c2ccc(F)cc2)CC1)C1CCCCC1 | 1.4 | 10% | -0.3 | . | 0.2 | . | 0.73
O=C1/C(=C/c2ccccc2O)SC(=S)N1Cc1cccnc1 | -1.3 | . | 4.0 | i | 3.2 | -9.1 | 0.68
O=C(Nc1ncc(Cc2cccc(C(F)(F)F)c2)s1)c1ccc(-c2cccc([N+](=O)[O-])c2)o1 | 2.9 | . | -0.1 | i | 3.1 | 4.2 | 0.72
COC(=O)c1ccc2nc(-c3ccccc3)c(Cc3ccc(C)cc3)n2c1 | . | . | 1.4 | i | . | 0.6 | .
COc1ccc(C(=O)COC(=O)c2sc(C)nc2C)cc1F | . | -3% | 7.8 | i | 5.0 | -1.0 | 0.66
CCC(=NC(CC)CO)C1=C(O)CC(C)(C)CC1=O (stereo unspecified) | 4.3 | -7% | -0.7 | i | 0.3 | -33 | 0.64
O=C(c1ccc(F)cc1)c1ccc(OCC(=O)N2CCOCC2)cc1 | . | . | 0.7 | i | 3.0 | -5.4 | 0.69
Fc1cc(F)nc(NCc2ccccc2)n1 | -2.5 | -7% | 0.3 | i | 1.4 | -4.9 | 0.67
N#CC(=Cc1ccncc1)c1ccccc1 | . | -7% | -2.7 | i | . | 5.8 | .
Oc1ccc(/C=N/NC(=S)NCc2ccco2)cc1 | 1.4 | -3% | -2.9 | . | . | . | .
c1ccc(NC2=NCCN2CCCC2CCCCC2)cc1 | . | . | -2.1 | i | 1.8 | 4.3 | 0.68
CCC(C)NC(=O)N1c2ccccc2Sc2ccccc21 (stereo unspecified) | -1.0 | . | 0.4 | i | 3.4 | 8.4 | 0.61
O=C(Nc1ccccc1Cl)c1ccc2c(=O)n3c(nc2c1)CCC3 | . | . | -4.0 | i | 2.4 | 1.2 | 0.7
COCCCn1c(SCC(=O)Nc2ccccc2)nnc1-c1ccncc1 | ? | 4% | 2.0 | . | -0.6 | . | 0.77
CC(=O)C1=C(c2ccccc2)OC(N)=C(C#N)C1c1ccccc1C (stereo unspecified) | 2.3 | 7% | 1.4 | i | 1.2 | 3.2 | 0.64
COc1cc(C(=O)NCC(=O)OCc2cc(=O)oc3c(C)c(C)ccc23)cc(OC)c1OC | -0.5 | -10% | -4.3 | i | 1.1 | -2.0 | 0.67
CCN(CC)CCN(C(=O)c1cc2ccccc2cc1OC)c1nc2ccc(OC)cc2s1 | 6.4 | . | 3.7 | i | 0.8 | 5.2 | 0.73
CC(=O)Nc1cccc(-n2nnc(SCC(=O)Nc3ccc(F)c(Cl)c3)n2)c1 | 2.3 | -6% | 7.2 | i | . | -0.9 | .
CCn1cc(C2=NOC(C(=O)Nc3ccc4c(c3)OCO4)C2)c(C)n1 (stereo unspecified) | 0.0 | 2% | -3.6 | . | 3.1 | . | 0.68
CCc1ccc(N(CC(=O)NC(C)(C)C)C(=O)CCC(=O)Nc2ccccn2)cc1 | 4.4 | . | 1.0 | i | 0.8 | 0.1 | 0.7
Cc1ccc(OC(=O)CN2C(=O)c3ccccc3C2=O)cc1C | 0.4 | . | -0.6 | i | 6.1 | -1.2 | 0.63
CCOC(=O)N1CCN(C(=O)C[C@@H]2C[C@@]3(C(=O)OCC)CCC=C3N(Cc3ccccc3)C2=O)CC1 | . | . | -1.3 | i | . | 1.7 | .
COc1ccc(N(C)C(=O)c2cc3c(Cl)nc4ccccc4c3s2)cc1 | 2.8 | 8% | 0.8 | . | 0.0 | . | 0.71
Cc1ccc(-c2nc3ccc(C)cn3c2Cc2ccccc2C(F)(F)F)cc1 | . | . | 5.6 | i | . | -0.9 | .
O=C(OCC(=O)N1CCOCC1)c1ccc2ccccc2c1O | . | -3% | 2.8 | i | -99 | -2.0 | 0.66
C/C(=N/NC(=O)C(C)n1nc(C)c([N+](=O)[O-])c1C)c1ccc(OCC(N)=O)cc1 (stereo unspecified) | 1.6 | -9% | 4.8 | i | . | . | .

Record cards, from the list above.
CCc1ccc(N(CC(=O)NC(C)(C)C)C(=O)CCC(=O)Nc2ccccn2)cc1 is listed with RanGTP-Imp inh = 4.4; Vif A3G = .; HNF4A DNA FP = 1.0; FGF22 binding = i; UCH37 DUB inh = 0.8; MLL AF4-AF9 inh = 0.1; Ecoli growth = 0.7
Cc1ccc(-c2nc3ccc(C)cn3c2Cc2ccccc2C(F)(F)F)cc1 is listed with RanGTP-Imp inh = .; Vif A3G = .; HNF4A DNA FP = 5.6; FGF22 binding = i; UCH37 DUB inh = .; MLL AF4-AF9 inh = -0.9; Ecoli growth = .

Later entries
SMILES | RanGTP-Imp inh | Vif A3G | HNF4A DNA FP | FGF22 binding | UCH37 DUB inh | MLL AF4-AF9 inh | Ecoli growth
COc1ccccc1NC(=O)c1ccc(SCC(=O)NCc2ccccc2Cl)c([N+](=O)[O-])c1 | 3.5 | . | -2.4 | i | 1.8 | -3.9 | 0.69
O=C(O)CC(NC(=O)C(c1ccccc1)c1ccccc1)c1cccc([N+](=O)[O-])c1 (stereo unspecified) | -1.6 | -16% | -0.8 | i | 2.3 | -4.8 | 0.67
CCOc1ccc(S(=O)(=O)NCCC(=O)N2CCN(c3ncccn3)CC2)cc1 | . | -3% | 0.7 | i | 1.5 | 0.2 | 0.66
COc1ccc(N(C(=O)Cn2nnc3ccccc32)C(C(=O)NCc2ccco2)c2ccc(C)o2)cc1 (stereo unspecified) | -2.1 | 15%&3% | 1.1 | . | 1.0 | . | 0.69
Cc1noc(C(=O)Nc2cccnc2Cl)c1Cl | -0.6 | -9% | 2.0 | i | 4.8 | 0.6 | 0.69
COC(=O)c1ccc(CNC(=O)N2CCN(S(=O)(=O)c3ccc(C)cc3)CC2)cc1 | -1.2 | -9% | -0.5 | i | -2.1 | -2.4 | 0.72
COc1cc(C2c3cc4c(cc3C(O)C3COC(=O)C23)OCO4)cc(OC)c1OC (stereo unspecified) | . | -1% | 0.3 | i | . | -1.1 | 0.67
CCC1CCCCN1C(=O)CCC(=O)Nc1nnc(C(F)(F)F)s1 (stereo unspecified) | 3.3 | . | 2.3 | i | -0.5 | 1.8 | 0.66
CCc1ccc(C(C(=O)NC2CCCC2)N(Cc2cccnc2)C(=O)c2csnn2)cc1 (stereo unspecified) | 5.1 | -5% | -0.8 | . | -0.9 | 1.0 | 0.58
COc1ccc(Cn2cc(CN3CCOCC3)nn2)cc1 | . | . | 1.9 | i | . | -4.2 | .
O=C(COc1cccc2cccnc12)Nc1cccc(S(=O)(=O)N2CCCC2)c1 | . | -2% | -8.5 | i | 2.0 | 0.3 | 0.68
CC(=O)NS(=O)(=O)c1cccnc1Nc1ccc(Cl)c(Cl)c1 | -1.2 | 3% | -2.1 | . | 2.6 | . | 0.71
CN1CCN(S(=O)(=O)c2ccc(NC(=O)C3CCCO3)cc2)CC1 (stereo unspecified) | -2.3 | 4% | -0.8 | . | 2.7 | . | 0.68
CCn1ncc(Br)c1C(=O)Nc1cc([N+](=O)[O-])ccc1C | 0.2 | . | -0.6 | i | 5.3 | 0.6 | 0.69
CC(C)NCc1c(O)c(Br)cc2oc3c(c12)CCCC3 | . | ? | 0.0 | . | 5.0 | . | 0.7
Clc1cccc(Cl)c1Cn1nnc(N2CCCC2)n1 | 0.3 | 3% | 5.6 | i | 6.7 | 0.1 | 0.67
Cc1cc2cc(CNC(=O)c3ccc(S(=O)(=O)N4CCCC4)cc3)ccc2n1C | 2.1 | -18% | -6.5 | i | 1.1 | -13 | 0.75
Cc1ccc(S(=O)(=O)N2CCOCC2)cc1C(=O)N1CCOCC1 | 1.0 | -1% | -0.4 | . | 0.2 | . | 0.67
CC(C)=CCCC1=CCC2C(=O)NNC(=O)C2C1 (stereo unspecified) | -2.1 | 3% | -1.0 | . | -1.3 | -1.0 | 0.79
CC(=O)c1cccc(NC(=O)c2ccc(Br)o2)c1 | 1.9 | -1% | -0.8 | . | 2.5 | . | 0.69
CCN(CC)c1ccc(C(=O)OCC(=O)N(C(C)C)C(C)C)cc1 | -1.7 | -6% | 1.2 | i | 2.4 | -5.5 | 0.68
Cn1cc(-c2csc(C(C)(O)c3cccc(F)c3)n2)cn1 (stereo unspecified) | . | . | 0.1 | i | . | 2.6 | .
CCOC(=O)c1c(CN2CCCCC2)oc2ccc(O)cc12 | -0.5 | 1% | -2.6 | . | 2.4 | . | 0.64
N/C(=N\OC(=O)C(c1ccccc1)c1ccccc1)c1cccnc1 | 2.1 | -1% | 1.1 | i | -1.1 | -6.3 | 0.67
O=C(NCCc1ccc(Cl)cc1)c1ccc(CS(=O)Cc2ccccc2Cl)o1 (stereo unspecified) | -1.6 | -12% | 2.3 | i | 1.9 | -1.4 | 0.69
COC(=O)C1=CN(Cc2ccc(OC)c(OC)c2)C=C(C(=O)OC)C1c1cccc(OC)c1OC | 73* | -1% | -1.1 | i | i | -24 | 0.67
Cc1cccc2cc(CNCC3CCCO3)c(Cl)nc12 (stereo unspecified) | 0.7 | . | 0.0 | i | -1.9 | -8.9 | 0.68
CN(C)c1ccc(/C=N/O)cc1 | -1.6 | -1% | 2.8 | i | . | -0.7 | .
C=CCn1c(NC(=O)c2ccccc2)nc2ccccc21 | 3.7 | . | -0.5 | i | -1.1 | 1.3 | 0.64
O=C(CSc1nc2ncc(Cl)cc2[nH]1)NCCc1ccc(F)cc1 | ? | 5% | 1.4 | i | 2.7 | -1.8 | 0.65
CCN(CC(=O)Nc1ccc(NC(C)=O)cc1)C(=O)/C=C/c1cn(-c2ccccc2)nc1-c1cccs1 | 4.7 | -1% | 2.2 | i | -35 | 0.3 | 0.69
COc1cc(-c2nc3n(n2)C(c2ccc(F)cc2)C2=C(CCCC2=O)N3)cc(OC)c1OC (stereo unspecified) | -2.7 | 9% | -0.1 | . | 1.1 | . | 0.7
Cc1ccc(S(=O)(=O)N2Cc3ccccc3CC2C(=O)Nn2cnnc2)cc1 (stereo unspecified) | -0.5 | -1% | -3.8 | . | -0.7 | . | 0.73
O=C(NCc1cccnc1)C1COc2ccccc2O1 (stereo unspecified) | -0.4 | -3% | -5.2 | . | -0.8 | . | 0.69
Cc1ccc(/C=N/NC(=O)c2cccc3ccccc23)o1 | 1.6 | . | 1.8 | i | . | 0.5 | .
Cc1ccc(S(=O)(=O)NCCc2nnc3ccc(NCCCOC(C)C)nn23)cc1 | 1.0 | . | -1.1 | i | 1.1 | -0.1 | 0.74
CN(CCOc1cccc2ccccc12)Cc1ccccc1 | 1.2 | . | 3.5 | i | 6.0 | 0.4 | 0.64
O=C(NNC(=O)C12CC3CC(CC(C3)C1)C2)c1ccccc1O | . | -5% | 3.0 | i | -6.0 | -1.4 | 0.69
COc1cc(/C=N/NC(=O)CSc2n[nH]c(=O)[nH]c2=O)cc(OC)c1O | -1.6 | 14% | 6.6 | i | . | -1.8 | .
c1nc(NCC2(N3CCOCC3)CCCCC2)c2ccsc2n1 | 2.5 | 14% | 0.5 | . | 1.7 | . | 0.73
